# Screens deposited in PubChem by Broad Institute.
# Vaccinia stage: Vaccinia orthopox stage-specific inhibition; Vaccinia-infected cells, mCherry/Venus stage reporter fluorescence; active compounds read low; some inactives read as strong as hits; activity change (mCherry), % (no concentration beside the values); actives 0.01% (n = 89,000); AID 1053133;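 active = mCherry past -33% and 40 or more points under the early reporter, replicates agreeing; inconclusive = past -33% without that gap or agreement; tested in A549 cells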;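 also: scaled between vehicle wells and reference inhibitor wells; 23 nL library stock went into each well; one replicate is shown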
# Vaccinia stage Venus: also measured in Vaccinia stage; calls as there; activity change (Venus), %; measured here: Venus reporter, other viral stage;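 negative = less Venus signal; first of two replicates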
# An asterisk follows results filed as active; ? = inconclusive; nt = no result given; & = joins results of further samples.
SMILES,Vaccinia stage,Vaccinia stage Venus
Cc1noc(C)c1S(=O)(=O)Nc1ccc2c(c1)C(=O)N([C@H](C)CO)C[C@@H](C)[C@H](CN(C)Cc1ccncc1)OCCCC[C@H](C)O2,6,-3
C[C@@H]1CN([C@H](C)CO)C(=O)c2cc(C#Cc3ccc(F)cc3)cnc2O[C@@H]1CN(C)C,-21,-16
CCCN(C)C[C@H]1Oc2cc(C#Cc3ccccc3F)ccc2S(=O)(=O)N([C@H](C)CO)C[C@@H]1C,-5,0
Cc1cccc(S(=O)(=O)N(C)C[C@H]2OCc3cnnn3CCCC(=O)N([C@H](C)CO)C[C@@H]2C)c1,15,18
CO[C@H]1CN(C)C(=O)c2ccc(NC(=O)Nc3ccccc3F)cc2OC[C@H](C)N(C)C[C@@H]1C,-9,-17
O=C(Nc1ccc(F)cc1)N1CC(=O)N2[C@@H](CO)[C@@H](c3ccc(Br)cc3)[C@@H]2C1,2,-2
C[C@H]1CCCCO[C@H](CN(C)CC2CC2)[C@@H](C)CN([C@@H](C)CO)C(=O)c2cc(NS(=O)(=O)c3ccccc3)ccc2O1,25,19
C[C@@H]1CN([C@@H](C)CO)C(=O)c2cc(NC(=O)CCC(F)(F)F)ccc2O[C@H]1CN(C)C(=O)Nc1ccccc1,-2,5
O=C(Cc1ccncc1)NCC[C@@H]1CC[C@@H](NC(=O)C2CCC2)[C@H](CO)O1,-5,4
C[C@@H]1CN([C@@H](C)CO)C(=O)c2cc(C#CC3(O)CCCC3)cnc2O[C@H]1CN(C)Cc1cccnc1,16,12
COc1cccc(C(=O)Nc2ccc3c(c2)C(=O)N(C)C[C@@H](OC)[C@@H](C)CN(C(C)=O)[C@@H](C)CO3)c1,-2,-5
C[C@@H]1CN([C@H](C)CO)C(=O)c2cc(NC(=O)CCCN(C)C)ccc2O[C@@H](C)CCCCO[C@H]1CN(C)S(=O)(=O)c1cccs1,-13,-15
COc1ccc(NC(=O)N(C)C[C@@H]2OCCCC[C@@H](C)Oc3ccc(NC(=O)Nc4c(C)noc4C)cc3C(=O)N([C@H](C)CO)C[C@@H]2C)cc1,16,8
O=C(C[C@H]1CC[C@@H](NC(=O)c2ccncc2)[C@@H](CO)O1)NCC1CCCCC1,-7,-3
C[C@@H]1CN([C@@H](C)CO)C(=O)c2cccc(NC(=O)Nc3cccc4ccccc34)c2O[C@H]1CN(C)C(=O)Nc1ccccc1,-17,-4
CCCC(=O)N1CC2(CN(S(=O)(=O)CC)C2)c2c(n(C)c3cc(OC)ccc23)[C@@H]1CO,20,13
O=C(C[C@@H]1CC[C@H]2[C@@H](COC[C@H](O)CN2C(=O)Nc2ccccc2)O1)NCCc1ccncc1,4,4
CC=Cc1ccc2n(c1=O)C[C@H]1[C@H](CO)[C@@H](C(=O)N(C)C)[C@@H]2N1CC1CCOCC1 (mixture of isomers),17,7
C[C@@H]1CN([C@H](C)CO)S(=O)(=O)c2ccc(C#CC3CC3)cc2O[C@@H]1CN(C)C(=O)c1cnccn1,6,-8
C[C@H]1CN([C@@H](C)CO)C(=O)c2cc(NS(C)(=O)=O)ccc2O[C@@H]1CN(C)Cc1ccc(Oc2ccccc2)cc1,-25,-26
CCCNC(=O)C[C@@H]1CC[C@@H]2[C@H](COc3ccc(NC(=O)c4cccc(OC)c4)cc3C(=O)N2C)O1,4,4
C[C@@H]1CN([C@H](C)CO)C(=O)Cc2cc(NS(=O)(=O)c3ccc(F)cc3)ccc2O[C@H]1CN(C)Cc1ccncc1,24,17
C[C@H](CO)N1C[C@H](C)[C@H](CN(C)S(=O)(=O)c2cn(C)cn2)Oc2c(NC(=O)Nc3ccccc3)cccc2C1=O,11,5
C[C@H](CO)N1C[C@H](C)[C@@H](CN(C)C(=O)NC2CCCCC2)Oc2ccc(NC(=O)CCCCCC(=O)Nc3ccccc3N)cc2CC1=O,-6,11
C[C@@H]1CN([C@H](C)CO)C(=O)CCCn2cc(nn2)CO[C@H]1CN(C)S(=O)(=O)c1ccc(Oc2ccccc2)cc1,5,-3

# Next part (six carried over from the part before).
SMILES,Vaccinia stage,Vaccinia stage Venus
C[C@H]1CN([C@@H](C)CO)C(=O)c2cc(NS(C)(=O)=O)ccc2O[C@@H]1CN(C)Cc1ccc(Oc2ccccc2)cc1,-25,-26
CCCNC(=O)C[C@@H]1CC[C@@H]2[C@H](COc3ccc(NC(=O)c4cccc(OC)c4)cc3C(=O)N2C)O1,4,4
C[C@@H]1CN([C@H](C)CO)C(=O)Cc2cc(NS(=O)(=O)c3ccc(F)cc3)ccc2O[C@H]1CN(C)Cc1ccncc1,24,17
C[C@H](CO)N1C[C@H](C)[C@H](CN(C)S(=O)(=O)c2cn(C)cn2)Oc2c(NC(=O)Nc3ccccc3)cccc2C1=O,11,5
C[C@H](CO)N1C[C@H](C)[C@@H](CN(C)C(=O)NC2CCCCC2)Oc2ccc(NC(=O)CCCCCC(=O)Nc3ccccc3N)cc2CC1=O,-6,11
C[C@@H]1CN([C@H](C)CO)C(=O)CCCn2cc(nn2)CO[C@H]1CN(C)S(=O)(=O)c1ccc(Oc2ccccc2)cc1,5,-3
C/C=C/c1cnc2c(c1)C(=O)N([C@H](C)CO)C[C@H](C)[C@@H](CN(C)C(=O)Cc1ccccn1)O2,15,8
Cc1noc(C)c1NC(=O)N(C)C[C@H]1Oc2ccc(NC(=O)CCC(F)(F)F)cc2CC(=O)N([C@@H](C)CO)C[C@H]1C,2,6
O=C(Nc1ccc(F)cc1)N1CC(=O)N2[C@@H](CO)[C@@H](c3ccc(-c4ccc(F)cc4)cc3)[C@@H]2C1,-24,-19
N#C[C@H]1[C@H](c2ccccc2)[C@H](CO)N1C(=O)CCN1CCCCC1,15,4
CO[C@@H]1CN(C)C(=O)c2ccc(NS(=O)(=O)c3ccccc3)cc2OC[C@H](C)N(Cc2cccnc2)C[C@@H]1C,6,4
CCC(=O)N1C[C@H](O)COC[C@H]2O[C@H](CC(=O)NC)CC[C@@H]21,21,5
CCCNC(=O)N1C[C@@H]2[C@H](c3ccccc31)[C@H](CO)N2C(=O)Nc1ccccc1F,-5,7
C[C@@H]1CN([C@@H](C)CO)C(=O)Cc2cc(NS(C)(=O)=O)ccc2O[C@@H]1CN(C)C(=O)Nc1ccc(F)cc1,21,15
COc1ccc(NC(=O)N(C)C[C@@H]2OCc3cnnn3CCCC(=O)N([C@H](C)CO)C[C@H]2C)c(OC)c1,11,7
COc1ccc(NC(=O)N[C@@H]2C=C[C@H](CC(=O)NCc3ccccn3)O[C@@H]2CO)cc1,-4,4
CN1C(=O)c2cc(NC(=O)c3cccc(F)c3)ccc2OC[C@@H]2O[C@H](CC(=O)NCC3CCCCC3)CC[C@H]21,-17&-24,-7&-4
COc1ccc(S(=O)(=O)N(C)C[C@@H]2Oc3ccc(NC(=O)Nc4ccccc4)cc3CC(=O)N([C@@H](C)CO)C[C@H]2C)cc1,3,14
O=C(C[C@H]1CC[C@@H]2[C@H](COC[C@H](O)CN2C(=O)Cc2ccccc2)O1)NC1CCCC1,5,5
C[C@H]1CN([C@@H](C)CO)S(=O)(=O)c2ccc(C#Cc3ccc(F)cc3)cc2O[C@@H]1CN(C)C(=O)c1ccccn1,?,nt
CO[C@H](CN(C)S(=O)(=O)c1ccc(Cl)cc1)[C@H](C)CN([C@@H](C)CO)S(=O)(=O)c1cccc(Cl)c1,?,nt
O=C(NC1CCC1)[C@@H]1[C@@H](CO)[C@@H]2Cn3c(ccc(-c4ccncc4)c3=O)[C@H]1N2CC1CC1,0,3
O=C(c1cccnc1)N1CCCCN2[C@H](C1)[C@H](c1ccc(C#Cc3ccccn3)cc1)[C@@H]2CO,2,3
CCCNC(=O)N(C)C[C@H]1Oc2ncc(-c3ccccc3)cc2C(=O)N([C@H](C)CO)C[C@@H]1C,7,-4
O=C(CC1CC1)N1CC(=O)N2[C@@H](CO)[C@H](c3ccc(C#Cc4ccc(F)cc4)cc3)[C@@H]2C1,-32,-28
C[C@H](CO)N1C[C@H](C)[C@@H](CN(C)C(=O)Nc2ccccc2)Oc2ccc(NS(=O)(=O)c3ccccc3)cc2C1=O,12,10
O=C(C1CC1)N1CCCCN2[C@H](CO)[C@H](c3ccc(-c4cccc(F)c4)cc3)[C@H]2C1,-23,-13
Cc1ccc(S(=O)(=O)Nc2ccc3c(c2)C(=O)N([C@@H](C)CO)C[C@@H](C)[C@@H](CN(C)S(C)(=O)=O)OCCCC[C@@H](C)O3)cc1,14,7
CC=Cc1ccc2n(c1=O)C[C@@H]1[C@@H](CO)[C@H](C(=O)N(C)C)[C@H]2N1CC1CCCC1 (mixture of isomers),7,6
CCC(=O)Nc1ccc2c(c1)C(=O)N(C)C[C@@H](OC)[C@H](C)CN(Cc1ccccn1)[C@H](C)CO2,2,5
CN(C)C(=O)C[C@H]1C=C[C@H](NC(=O)NC2CCCCC2)[C@H](CO)O1,-6,7

# Further entries follow.
SMILES,Vaccinia stage,Vaccinia stage Venus
C[C@@H]1CCCCO[C@H](CN(C)C(=O)CCCN(C)C)[C@H](C)CN([C@@H](C)CO)C(=O)c2cc(NC(=O)Nc3cccc4ccccc34)ccc2O1,7,16
CN1CCN(C(=O)C[C@H]2CC[C@@H]3[C@H](COC[C@@H](O)CN3C(=O)Cc3ccccc3)O2)CC1,1,0
C[C@H]1CN([C@@H](C)CO)C(=O)CCCn2cc(nn2)CO[C@@H]1CN(C)S(=O)(=O)c1ccc(Oc2ccccc2)nc1,8,0
CN(C)C(=O)C[C@H]1C[C@H]2c3cc(NS(C)(=O)=O)ccc3O[C@H]2[C@@H](CO)O1,12,9
CC(C)NC(=O)N(C)C[C@H]1OCCCC[C@H](C)Oc2ccc(NC(=O)Nc3cccc4ccccc34)cc2C(=O)N([C@@H](C)CO)C[C@H]1C,31,22
C[C@H](CO)N1C[C@H](C)[C@H](CN(C)Cc2ccc(Cl)c(Cl)c2)Oc2ccc(NC(=O)Cc3cn(C)c4ccccc34)cc2CC1=O,-17,-13
N#C[C@@H]1[C@@H](c2ccccc2)[C@H](CO)N1S(=O)(=O)c1ccc(-c2ccccc2)cc1,-12,-9
COc1ccc(NC(=O)Nc2ccc3c(c2)[C@@H]2C[C@@H](CC(=O)NC4CCCCC4)O[C@H](CO)[C@@H]2O3)cc1,-4,-3
C[C@H](CO)N1C[C@H](C)[C@@H](CN(C)CC2CC2)OCCCC[C@H](C)Oc2ccc(NS(=O)(=O)c3ccccc3)cc2C1=O,3,-5
O=C(c1ccc(F)cc1)N1CC(=O)N2[C@H](C1)[C@@H](c1ccc(-c3ccccc3)cc1)[C@@H]2CO,-18,-10
COc1ccc(CN2C[C@H](C)[C@@H](OC)CN(C)C(=O)c3cc(NC(C)=O)ccc3OC[C@@H]2C)cc1,-7,-2
CCCc1cn(CC[C@H]2CC[C@H](NC(=O)C3CCC3)[C@H](CO)O2)nn1,8,4
CN(C)CCCNC(=O)[C@@H]1[C@@H](CO)[C@@H]2Cn3c(ccc(C4=CCCC4)c3=O)[C@@H]2N1CCC(F)(F)F,-5,4
O=C(C[C@H]1CC[C@@H]2[C@H](COC[C@H](O)CN2C(=O)Nc2ccc(Cl)c(Cl)c2)O1)NCc1ccc(F)cc1,-24,-14
C[C@@H]1CN([C@H](C)CO)S(=O)(=O)c2ccc(C3=CCCCC3)cc2O[C@@H]1CN(C)Cc1ccccc1F,?,nt
C[C@@H]1CN([C@H](C)CO)C(=O)c2cc(-c3ccncc3)cnc2O[C@H]1CN(C)S(=O)(=O)c1ccc(F)cc1,11,4
CO[C@H]1CN(C)C(=O)c2cc(NC(=O)C3CC3)ccc2OC[C@@H](C)N(C(=O)c2cccnc2)C[C@@H]1C,15,15
C[C@@H]1CN([C@@H](C)CO)C(=O)Cc2cc(NC(=O)CCCCCC(=O)Nc3ccccc3N)ccc2O[C@H]1CN(C)C(=O)Nc1ccc(F)cc1,9,4
COc1ccc2c3c([nH]c2c1)[C@H](CO)N(C(=O)c1ccccn1)CC31CN(C(=O)C2CCC2)C1,8,6
COc1ccc(NC(=O)N(C)C[C@@H]2Oc3ccc(NC(=O)C4CCCCC4)cc3C(=O)N([C@@H](C)CO)C[C@H]2C)cc1,3,1
C[C@H](CO)N1C[C@H](C)[C@@H](CN(C)Cc2ccc3c(c2)OCO3)Oc2ccc(NC(=O)CCC(F)(F)F)cc2C1=O,7,11
C[C@H]1CN([C@@H](C)CO)C(=O)c2cccc(NC(=O)Nc3cccc4ccccc34)c2O[C@H]1CN(C)S(=O)(=O)c1cccs1,-1,-4
COC(=O)N(C)C[C@H]1OCc2cnnn2CCCC(=O)N([C@H](C)CO)C[C@H]1C,9,12
CCCC#Cc1ccc([C@H]2[C@@H](CO)N3C(=O)CN(C(=O)c4ccccn4)C[C@H]23)cc1,-16,-18
C[C@@H]1CN([C@H](C)CO)C(=O)c2cc(C#Cc3cccnc3)cnc2O[C@@H]1CN(C)S(C)(=O)=O,14,14
CCCN(C)C[C@H]1OCCCC[C@@H](C)Oc2ccc(NC(=O)c3ccccc3)cc2C(=O)N([C@H](C)CO)C[C@@H]1C,-10,-9

# Record cards, from the list above. Values in the order: Vaccinia stage, Vaccinia stage Venus
# Entry for COc1ccc(NC(=O)N(C)C[C@@H]2OCc3cnnn3CCCC(=O)N([C@H](C)CO)C[C@H]2C)c(OC)c1 = 11, 7
# Entry for O=C(NC1CCC1)[C@@H]1[C@@H](CO)[C@@H]2Cn3c(ccc(-c4ccncc4)c3=O)[C@H]1N2CC1CC1 = 0, 3
# Entry for O=C(c1ccc(F)cc1)N1CC(=O)N2[C@H](C1)[C@@H](c1ccc(-c3ccccc3)cc1)[C@@H]2CO = -18, -10
# Entry for COc1ccc(NC(=O)N[C@@H]2C=C[C@H](CC(=O)NCc3ccccn3)O[C@@H]2CO)cc1 = -4, 4
# Entry for C[C@@H]1CN([C@@H](C)CO)C(=O)c2cc(NC(=O)CCC(F)(F)F)ccc2O[C@H]1CN(C)C(=O)Nc1ccccc1 = -2, 5

# A portion of the library. The share of hits here may be higher or lower than overall.
